Six1-Eya2 inh: inhibitors of human Six1/Eya2 interaction; 0.56% of 360,000 active; activity change, % (no concentration beside the values); AlphaScreen GST-Six1/His-Eya2 binding, biochemical; hits give low values; control for the full effect not named in the record; Q15475+O00167; AID 651725; in the data active = activity change below about -65%; inconclusive = about -30% to -65%; inactive = above about -30%; note: % is set by controls: 0 for no effect and ±100 for the full control effect; compound concentration not given in the record
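AlphaScreen with GST-Six1 and His-Eya2 (5X mix: 250 nM and 500 nM), glutathione donor and nickel acceptor beads; buffer 50 mM Tris pH 8.0, 300 mM NaCl, 1 mM TCEP; 1 h at 37 C in the dark.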
PINK1 modulator: PINK1 expression modulation. AID 624263. Potency, µM (titrated, usually from 76.6 µM), for the others: at the top dose activation (PINK1 increase), most hits filed as activators. PINK1 immunofluorescence, high-content cytometry, 24 h. 0.2% of 410,000 active; active = well fitted activation curve with a large enough effect; inconclusive = small, poorly fitted or top-dose-only effect; inactive = flat fitted curve, though single readings scatter; cell line not stated here;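 note: potency is the fitted concentration of half-maximal effect; % of control where 0% means no effect; nearly all actives have a fitted effect of over 65% in size; a mitochondrial uncoupler was the plate control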
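PINK1 protein, normally rapidly degraded, was detected by immunofluorescence after 24 hour compound treatment of a stable cell line. Titration data (5 concentrations) came from laser-scanning cytometry, with CCCP-treated wells as controls.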
TRPML1 inh: blocks the human TRPML1 channel; Q9GZU1; TRPML1-inducible cells, Ca2+ dye fluorescence, FDSS; hits give low values; inhibition of EC80 agonist-evoked calcium signal; activity change, negative = inhibition, % (test concentration not listed); 0.02% of 390,000 active; AID 624415; in the data active means activity change below about -50%; inconclusive means about -30% to -50%; inactive means above about -30%;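 note: stimulus is agonist 54-4 at its EC80 concentration; % is set by controls: 0 for no effect and ±100 for the full control effect; compound concentration not given in the record; the text of the record puts the active cut at -80%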
Target sequence (Q9GZU1 whole entry, looked up): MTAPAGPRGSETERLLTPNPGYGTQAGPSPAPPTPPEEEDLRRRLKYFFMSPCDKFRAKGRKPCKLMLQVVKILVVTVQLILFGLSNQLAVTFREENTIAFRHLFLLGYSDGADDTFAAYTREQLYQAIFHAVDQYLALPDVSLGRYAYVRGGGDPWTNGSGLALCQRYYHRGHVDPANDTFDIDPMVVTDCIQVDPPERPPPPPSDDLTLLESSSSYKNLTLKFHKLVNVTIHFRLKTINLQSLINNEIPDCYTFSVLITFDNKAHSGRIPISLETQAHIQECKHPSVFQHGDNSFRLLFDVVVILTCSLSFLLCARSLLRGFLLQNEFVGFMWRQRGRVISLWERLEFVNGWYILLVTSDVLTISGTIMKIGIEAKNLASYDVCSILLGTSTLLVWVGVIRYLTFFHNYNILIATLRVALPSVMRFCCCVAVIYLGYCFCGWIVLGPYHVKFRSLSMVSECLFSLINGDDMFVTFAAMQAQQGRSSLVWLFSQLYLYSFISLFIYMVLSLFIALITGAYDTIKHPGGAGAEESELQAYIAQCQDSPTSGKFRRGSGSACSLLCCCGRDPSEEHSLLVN
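TRPML1-DL cells, Tet-induced overnight (~16 h, 37 °C) at 1,500 cells/well, were loaded with Ca8 no-wash dye plus quencher for 45-90 min at room temperature. Compounds were pinned during FDSS kinetic reading; agonist 54-4 at EC80 (4 uM final) then added.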
TRPML1 agonist: agonists of human TRPML1 channel. activation, % (test concentration not listed). Q9GZU1. TRPML1-expressing cells, Ca2+ dye fluorescence, FDSS; host cell line not named in the record; reference of the full effect not given here. 0.12% of 410,000 active. AID 624414; in the data active = activation above about 50%; inconclusive = about 30% to 50%; inactive = below about 30%; note: 0% is about no effect; the text of the record puts the active cut at 80%
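In this qHTS format, compounds were pin-transferred onto Ca8-dye-loaded TRPML1-DL cells induced with Tet overnight, and intracellular Ca2+ fluorescence was recorded kinetically for 110 s after a 10 s baseline. A subsequent 4uM final 54-4 (EC80) addition followed by a second 110 s read served as the antagonist phase.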
D2 ag: human D2 receptor agonism in beta-arrestin assay | DiscoveRx PathHunter D2 beta-arrestin, luminescence, 90 min; 100% = 57 uM dopamine signal | 0.084% of 360,000 active | activation, % (test concentration not listed) | P14416; in the data active = activation above about 40%; inconclusive = about 15% to 40%; inactive = below about 15%; note: compound concentration not given in the record; the text of the record calls up to 30% inactive
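Agonist mode: compounds alone added to overnight-plated D2 PathHunter cells for 90 min at 37 C, with 57 uM final dopamine (EC100) defining full response. Beta-arrestin recruitment detected by chemiluminescent reagent, read after 1 h at ambient temperature.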
D2 potentiator: positive allosteric modulators of human D2 dopamine receptor. P14416. DiscoveRx D2 beta-arrestin cells, luminescence, 90 min; 100% = 57 uM dopamine signal. potentiation, % (no concentration beside the values). 0.23% of 360,000 active; active = potentiation of 50% or more; inconclusive = 30% to 50%; inactive = 30% or less;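 note: compound concentration not given in the record; tested on top of an EC20 dose of dopamine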
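PathHunter beta-arrestin assay in DiscoveRx D2 cells. Compounds were added with an EC20 of dopamine (50 nM final) for 90 min at 37 deg C. Luminescence was read 1 h after detection reagent, with 57 uM dopamine as the EC100 control.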
An asterisk follows results filed as active; ? = inconclusive; . = no result given; & = joins results of further samples; [ ] = dose if it differs, or a comment.

Below each SMILES: Six1-Eya2 inh	PINK1 modulator	TRPML1 inh	TRPML1 agonist	D2 ag	D2 potentiator
1) COc1ccc(CCN2CC(C(=O)N(C)CCOc3ccccc3)CCC2=O)cc1 (configuration not stated)
  4	1.6%	3	-0.6	-3.0	-7
2) CCC(SC1=N/C(=C/c2ccccc2OC)C(=O)N1c1ccccc1)C(=O)Nc1cc(C)on1 (configuration not stated)
  9	3.8%	-2	-0.8	-2.9	-7
3) CC1(C)C(O)=C(c2nc3ccccc3[nH]2)C(=N)N1c1ccccc1
  0	?	-5	1.4	-0.2	9
4) CCCOc1ccc(/C=C/c2[nH]c(=O)[nH]c(=O)c2[N+](=O)[O-])cc1OCC
  12	?	-15	0.5	-2.8	1
5) CC(=O)c1c(C(C)=O)c(C)n(-c2ccc(C)c(NC(=O)c3ccccc3Cl)c2)c1C
  -6	-2.6%[38.3 µM]	1	0.3	0.0	0
6) COc1ccc(S(=O)(=O)Nc2ccc3c(c2)OCO3)cc1C(=O)O
  4	-0.2%[38.3 µM]	-6	-0.3	1.8	-2
7) NC(=S)NNC(=O)c1cc(C(F)(F)F)cc(C(F)(F)F)c1
  3	0.4%	-3	0.1	-2.2	-8
8) CCN(CC(=O)NC1CCS(=O)(=O)C1)C(=O)/C=C/c1cccs1 (configuration not stated)
  7	1.0%	-2	0.9	-5.8	-10
9) CC(C)Sc1ncc(Cl)c(C(=O)Nc2ccc(S(=O)(=O)N(C)c3ccccc3)cc2)n1
  .	-0.1%	6	0.0	.	.
10) Cc1c(C(N)=O)sc2ncn(CC(=O)NCCc3ccccc3)c(=O)c12
  10	-0.5%	-11	0.5	-5.5	-3
11) Cc1c(C(=O)NCc2ccco2)oc2c(F)cccc12
  -9	3.2%	-2	1.5	-4.2	1
12) O=C(Cc1ccc(Cl)cc1)N/N=C/c1cccc(O)c1
  -14	3.3%	7	0.4	-0.8	-52
13) C1=C2C[N+]3(CCCC3)CC2Cc2ccc3ccccc3c21 (configuration not stated)
  3	0.9%	5	-0.1	0.5	-11
14) COc1ccccc1C(=O)NNC(=S)NC(=O)c1ccco1
  -4	2.0%	15	2.4	-11	-41
15) CC(NC(=O)CCCC1CCCCC1)c1ccc(S(N)(=O)=O)cc1 (configuration not stated)
  10	0.2%	-1	0.0	-2.3	-5
16) Cc1ccccc1OCC(=O)NCC(=O)OCC(=O)c1ccc2ccccc2c1
  -1	1.6%&1.7%	-4	0.2&1.9	-7.3	-19
17) CCOC(=O)C1=C(C)NC(C)=C(C(=O)OCC)C1c1ccc([N+](=O)[O-])s1
  20&-3	2.5%&19%	12&1	0.8&1.5	-4.7&0.5	-14&0
18) CN(C)CC(=O)Nc1nc(-c2ccccc2)cs1
  -10	-0.2%	-7	-0.8	1.0	-4
19) COc1cccc(CNC(=O)N[C@@H](CC(C)C)C(=O)O)c1
  -1	2.5%	-12	-0.6	-2.7	-7
20) O=C(NCCCN1CCCC1=O)c1ccc(Cl)c(S(=O)(=O)N2CCCCC2)c1
  -1	-0.5%	5	0.0	-0.9	-2

12 entries from above, in transposed form.
9	CC(C)Sc1ncc(Cl)c(C(=O)Nc2ccc(S(=O)(=O)N(C)c3ccccc3)cc2)n1
10	Cc1c(C(N)=O)sc2ncn(CC(=O)NCCc3ccccc3)c(=O)c12
11	Cc1c(C(=O)NCc2ccco2)oc2c(F)cccc12
12	O=C(Cc1ccc(Cl)cc1)N/N=C/c1cccc(O)c1
13	C1=C2C[N+]3(CCCC3)CC2Cc2ccc3ccccc3c21 (configuration not stated)
14	COc1ccccc1C(=O)NNC(=S)NC(=O)c1ccco1
15	CC(NC(=O)CCCC1CCCCC1)c1ccc(S(N)(=O)=O)cc1 (configuration not stated)
16	Cc1ccccc1OCC(=O)NCC(=O)OCC(=O)c1ccc2ccccc2c1
17	CCOC(=O)C1=C(C)NC(C)=C(C(=O)OCC)C1c1ccc([N+](=O)[O-])s1
18	CN(C)CC(=O)Nc1nc(-c2ccccc2)cs1
19	COc1cccc(CNC(=O)N[C@@H](CC(C)C)C(=O)O)c1
20	O=C(NCCCN1CCCC1=O)c1ccc(Cl)c(S(=O)(=O)N2CCCCC2)c1

entry no.,9,10,11,12,13,14,15,16,17,18,19,20
Six1-Eya2 inh,.,10,-9,-14,3,-4,10,-1,20&-3,-10,-1,-1
PINK1 modulator,-0.1%,-0.5%,3.2%,3.3%,0.9%,2.0%,0.2%,1.6%&1.7%,2.5%&19%,-0.2%,2.5%,-0.5%
TRPML1 inh,6,-11,-2,7,5,15,-1,-4,12&1,-7,-12,5
TRPML1 agonist,0.0,0.5,1.5,0.4,-0.1,2.4,0.0,0.2&1.9,0.8&1.5,-0.8,-0.6,0.0
D2 ag,.,-5.5,-4.2,-0.8,0.5,-11,-2.3,-7.3,-4.7&0.5,1.0,-2.7,-0.9
D2 potentiator,.,-3,1,-52,-11,-41,-5,-19,-14&0,-4,-7,-2

Further entries.
Below each SMILES: Six1-Eya2 inh	PINK1 modulator	TRPML1 inh	TRPML1 agonist	D2 ag	D2 potentiator
21) O=C(/C=C/c1cccc([N+](=O)[O-])c1)NCc1cccnc1
  9	-0.8%	-10	-1.3	0.4	-3
22) Cc1ccccc1C(=O)NC(=S)Nc1cccc(NC(=O)C(C)C)c1
  0	0.7%	17	-0.3	2.8	-7
23) Cc1[nH]c2ccccc2c1/C=N/NC(=O)CNC(=O)c1cccs1
  -10	0.6%	4	-0.8	-2.7	-20
24) CN(C)S(=O)(=O)c1ccc(NC(=S)NC(=O)C2CCC2)cc1
  -11	-0.2%	-16	0.4	2.0	-10
25) CCOC(=O)[C@]12CCC=C1N(Cc1cccc3ccccc13)C(=O)[C@H](CC(=O)NCCCCc1ccccc1)C2
  -4	0.5%	.	-0.1	.	.
26) COc1ccc(N(C(=O)c2ccc(C(C)(C)C)cc2)S(=O)(=O)c2ccc(Cl)cc2)cc1
  .	4.7%	-6	-0.1	.	.
27) Cc1ccc(SC(C)C(=O)N2CCN(c3ccccc3)CC2)cc1 (configuration not stated)
  -4	0.7%	10	0.2	5.5	-6
28) CCOC(=O)N1CCN(S(=O)(=O)c2ccc3[nH]c(=O)sc3c2)CC1
  -7	1.7%	-3	-0.1	0.8	-22
29) COC(=O)CNC(=O)COC(=O)/C=C/c1cccs1
  -5	-0.1%	0	-0.6	-4.1	-3
30) CCOC(=O)c1sc2nc(C(C)C)c3c(c2c1N)CC(C)(C)OC3
  15	6.2%	36	-0.3	-1.5	4
31) COc1cc(OC)cc(N2C(=O)CSCC2=O)c1
  0	0.2%	9	0.1	2.4	1
32) Cc1ccc(C)c(OCCC(=O)OCC(=O)NCCNC(=O)COC(=O)CCOc2cc(C)ccc2C)c1
  3	8.6%	2	2.0	8.7	9
33) COc1ccc(-c2cccc(NS(=O)(=O)c3cccc([N+](=O)[O-])c3)c2)nn1
  -8	-3.3%	-20	1.9	8.8	-66
34) CC1(C)Cc2c(cnn2-c2ccccc2)C(=O)/C1=N\NC(=O)c1ccncc1
  0	-1.2%	-9	-0.3	0.1	1
35) CCCCCOc1ccc(NC(=O)C(=O)NCC2CCCN2CC)cc1 (configuration not stated)
  12	4.3%	0	-0.3	9.9	-4
36) CNC(=O)C(=O)Nc1ccc2c(c1)N(S(=O)(=O)c1cccs1)CCC2
  -12	2.5%	5	-0.4	1.8	-1
37) C[C@H](NC(=O)C1CCN(S(=O)(=O)c2ccccc2)CC1)C(=O)NCc1ccccn1
  -1	-1.0%	-6	-0.7	0.3	-9

Some entries already given, reduced to TRPML1 inh and TRPML1 agonist:
entry | compound | TRPML1 inh | TRPML1 agonist
35 | CCCCCOc1ccc(NC(=O)C(=O)NCC2CCCN2CC)cc1 (configuration not stated) | 0 | -0.3
36 | CNC(=O)C(=O)Nc1ccc2c(c1)N(S(=O)(=O)c1cccs1)CCC2 | 5 | -0.4

Source: PubChem BioAssay
